# Screening data deposited in PubChem by National Center for Advancing Translational Sciences (NCATS).
# Rango release inh = inhibition of RanGTP-driven Rango-importin beta dissociation; Biochemical FRET Rango-importin beta, RanGTP-induced dissociation; Potency, µM (doses to about 46.1 µM), inactives show top-dose activity change, negative = inhibition; hit rate 0.071% among 340,000; AID 540253; active means falling FRET ratio curve, often poorly fitted, with flat reads before Ran was added; inconclusive means other falling curves, or compound fluorescence or quenching; inactive means flat or rising ratio curve;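 note: potency is the fitted concentration of half-maximal effect; % of control where 0% means no effect; nearly all actives have a fitted effect of over 45% in size; -100% = wells without RanGTP and RCC1; the record marks most hits as doubtful in a second field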
#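 Rango/importin beta premix (0.1/0.25 uM final), PBS + 1 mM DTT + 0.02% Tween-20 + 0.1% BSA; cpd 5 min RT; FRET pre-read; + RanGTP-RCC1 (0.6 uM Ran, 2 mM GTP, 0.2 uM RCC1); 45 min RT; FRET post-read, ex 430, em 486/530 nm.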
# Rango complex inh = inhibitors of Rango-importin beta complex formation; Q14974; Rango CFP/YFP FRET sensor + importin beta, 45 min; Potency, µM (top dose mostly 92.2 µM), inactives show top-dose inhibition of complex formation; hit rate 0.031% among 340,000; active = rising FRET ratio curve, often small or poorly fitted; inconclusive = mostly compound fluorescence or quenching in the first reads; inactive = flat curves in all reads;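 note: potency is the fitted concentration of half-maximal effect; 0% = DMSO wells and 100% = buffer wells lacking importin beta; nearly all actives have a fitted effect of over 15% in size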
# Target sequence (Q14974 whole entry, looked up): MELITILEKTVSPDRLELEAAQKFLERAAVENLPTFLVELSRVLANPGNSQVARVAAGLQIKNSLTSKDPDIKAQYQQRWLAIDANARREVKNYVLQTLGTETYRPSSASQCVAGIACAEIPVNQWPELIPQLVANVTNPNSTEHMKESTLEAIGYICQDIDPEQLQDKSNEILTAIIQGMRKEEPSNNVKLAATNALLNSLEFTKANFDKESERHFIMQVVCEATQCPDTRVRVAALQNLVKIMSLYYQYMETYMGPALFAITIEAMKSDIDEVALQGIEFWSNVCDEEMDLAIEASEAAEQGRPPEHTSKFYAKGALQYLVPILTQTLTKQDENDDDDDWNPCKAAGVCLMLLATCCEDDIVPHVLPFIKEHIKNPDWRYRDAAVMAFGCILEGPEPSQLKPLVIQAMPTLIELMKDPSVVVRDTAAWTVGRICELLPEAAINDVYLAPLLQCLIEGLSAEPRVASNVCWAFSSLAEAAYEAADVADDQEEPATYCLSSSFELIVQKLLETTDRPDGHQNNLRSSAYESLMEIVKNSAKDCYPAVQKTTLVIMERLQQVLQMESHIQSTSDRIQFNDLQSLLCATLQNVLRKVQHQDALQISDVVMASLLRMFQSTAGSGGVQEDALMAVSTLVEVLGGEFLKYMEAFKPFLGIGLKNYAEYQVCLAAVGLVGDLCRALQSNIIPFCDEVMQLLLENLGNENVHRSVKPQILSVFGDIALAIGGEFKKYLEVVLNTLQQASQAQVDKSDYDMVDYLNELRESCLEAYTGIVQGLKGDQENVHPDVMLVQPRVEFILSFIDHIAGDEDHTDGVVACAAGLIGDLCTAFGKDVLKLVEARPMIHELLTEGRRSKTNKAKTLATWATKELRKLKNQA
#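 Inhibition scored from the CFP 486 nm/YFP 530 nm FRET ratio 45 min after adding 0.125 microM importin beta to 50 nM Rango biosensor preincubated 5 min with compound (room temperature, PBS with DTT, Tween-20, BSA). No-importin wells as positive control.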
# miR-21 reporter = raises the signal of a miR-21 reporter | HeLa miR-21 FLuc reporter, luciferase, 48 h | Potency, µM (highest dose often 38.3 µM), without a hit: at the top dose reporter change, positive = more light | 340,000 tested, under 10 active | AID 2288; active = well fitted rising curve with a large enough effect; inconclusive = small, poorly fitted or top-dose-only effect; inactive = no such curve, though single readings can be large or run the other way;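 note: % of control where 0% means no effect; miR-21 action dims this reporter so a rising signal means less miR-21 action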
#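 Using DMEM plus 10% FBS, HeLa miR-21-FLuc cells are incubated with test compounds (final up to about 40uM) for 48 hours; firefly luciferase signal is then imaged following reagent-mediated lysis.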
# GLA inh pH 4.5 = blocks human alpha-galactosidase A at pH 4.5; P06280; purified enzyme, 4-MU-alpha-Gal fluorescence, pH 4.5; activity change, negative = inhibition, % at 105 µM; 230,000 tested, under 10 active; inconclusive = small, poorly fitted or top-dose-only inhibition, or a rising curve; inactive = flat fitted curve, though single readings scatter; no compound was filed as active;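 note: 0% = full activity with enzyme and -100% = basal without enzyme; dose as in the result columns while the protocol names 77 µM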
# Numbers without * were called inactive; ? = inconclusive; · = no result given; & = joins results of further samples. These rows are one share of the data (hit frequency here may not be typical).
SMILES,Rango release inh,Rango complex inh,miR-21 reporter,GLA inh pH 4.5
O=C(NC[P+](=O)O)OCc1ccccc1,-0.2%,0.0%,-3.6%,-6.2
Cc1c(C(=O)Nc2ccccc2)c2cc(O)ccc2n1Cc1ccccc1,-9.3%,-0.7%,-3.0%,·
Cn1c(O)c(/C=N/c2ccccn2)c(=O)n(C)c1=O,6.2%,-2.4%,-2.4%,8.7
COC(=O)c1ccccc1OP(=O)(c1cccc([N+](=O)[O-])c1)c1cccc([N+](=O)[O-])c1,-0.3%,7.8%,-2.6%,-3.2
CCOc1ccc(NC(=O)C2C3c4ccccc4C(c4ccccc43)C2C(=O)O)cc1 (stereo not drawn),-3.0%,-0.1%,-3.5%,-1.2
OC1(c2cccnc2)CC2CCC(C1)N2Cc1nnnn1Cc1ccccc1 (stereo not drawn),5.9%,0.2%,-2.4%,-3.3
CCOC(=O)c1c(C)n(Cc2ccccc2)c2ccc(O)cc12,33.1%,1.8%,-12.8%,-1.6
COC(=O)C(O)(c1cn(C)c2ccccc12)C(F)(F)F (stereo not drawn),9.8%,1.2%,0.0%,-4.5
Cc1cccc2c1=NC(=O)/C(=C/c1c(O)[nH]c(=O)[nH]c1=O)C=2,-5.6%,3.7%,-7.5%,1.0
CCOC(=O)Cn1cc(C(=O)c2ccccc2F)c2ccccc21,0.8%,-3.0%,-2.9%,1.1
COc1ccccc1C(=O)Nc1ccc2c(c1)CC1(C(=O)N(C)C(=O)N(C)C1=O)C1CCCN21 (stereo not drawn),?,?,-5.8%,·
COc1ccc(OC)c(NP(=O)(Oc2ccccc2)Oc2ccccc2)c1,5.3%,-0.3%,-7.5%,·

# Some of the entries above, reformatted:
Structure: CCOc1ccc(NC(=O)C2C3c4ccccc4C(c4ccccc43)C2C(=O)O)cc1 (stereo not drawn)
  Rango release inh: -3.0%	Rango complex inh: -0.1%	miR-21 reporter: -3.5%	GLA inh pH 4.5: -1.2
Structure: COc1ccc(OC)c(NP(=O)(Oc2ccccc2)Oc2ccccc2)c1
  Rango release inh: 5.3%	Rango complex inh: -0.3%	miR-21 reporter: -7.5%	GLA inh pH 4.5: ·
Structure: CCOC(=O)Cn1cc(C(=O)c2ccccc2F)c2ccccc21
  Rango release inh: 0.8%	Rango complex inh: -3.0%	miR-21 reporter: -2.9%	GLA inh pH 4.5: 1.1
Structure: O=C(NC[P+](=O)O)OCc1ccccc1
  Rango release inh: -0.2%	Rango complex inh: 0.0%	miR-21 reporter: -3.6%	GLA inh pH 4.5: -6.2

# Continuation:
SMILES,Rango release inh,Rango complex inh,miR-21 reporter,GLA inh pH 4.5
Cc1c(Br)c(=O)oc2cc(OCC(=O)N3C[C@H]4C[C@@H](C3)c3cccc(=O)n3C4)ccc12,-7.4%,-3.8%,-2.2%,·
CC[C@@H](CO)C1CC2NC3CC4(c5ccccc5N(C)[C@@H]24)C(O)C31 (stereo partly drawn),12.8%,0.0%,·,·
CN1CCN(c2ccc(NC(=O)Oc3ccccc3)cc2)CC1,-0.8%,-3.5%,2.1%,0.2
CCCNC(=O)N1[C@H]2CC[C@@H]1C(C(=O)OC)=C(c1ccc3ccccc3c1)C2,-1.5%,2.7%,·,·
Cc1cc(C)n2nc(SC(C)C(=O)N3CCC4(CC3)OCCO4)nc2n1 (stereo not drawn),-2.1%,-5.4%,-4.2%,1.4
CN1CCN(Cc2cc(C(C)(C)C)c(O)c(C(C)(C)C)c2)CC1,-4.1%,-2.4%,-0.2%,-3.4
COc1ccccc1N=Cc1c(O)n(C)c(=O)n(C)c1=O,-4.5%,3.3%,-4.6%,-2.2
COc1ccc(CCNCc2ccncc2)cc1OC,27.5%,0.9%,2.1%,5.5
CCOC(=O)[C@@]12C(=O)C(=O)N[C@]1(c1ccccc1)C1OCCCC12 (stereo partly drawn),0.2%,0.1%,-0.3%,-3.7
COC(=O)C1=C(c2cccc(OC)c2OC)C[C@@H]2CC[C@H]1N2C,-5.0%,0.1%,·,·
Cc1cc(OCC(=O)OC(C)(C)C)c2c3c(c(=O)oc2c1)CCC3,-6.6%,-1.8%,9.5%,3.4
CN1C2CCC1/C(=C/c1ccccn1)C(=O)/C2=C\c1ccccn1,16.4%,-2.4%,?,-0.2
O=[N+]([O-])c1c(Cl)c(Cl)c(Cl)c(Cl)c1Cl,0.9%,-0.2%,·,·
O=C(O)[C@H]1C[C@@H]1[C@H](NP(=O)(c1ccccc1)c1ccccc1)c1ccccc1,2.9%,-5.7%,-5.4%,9.5&1.2
Cc1c(NS(=O)(=O)c2ccccc2)ccc([N+](=O)[O-])c1Cl,2.8%,-1.0%,·,·
CCOc1ccc(-n2c(O)c(N=Nc3ccc([N+](=O)[O-])cc3)c(=O)[nH]c2=O)cc1,?,?,-1.2%,-2.2
O=c1[nH]c(=S)n(-c2ccc(Cl)cc2)c(O)c1/C=N/N1CCOCC1,12.6%,-0.9%,2.3%,-0.4
S=c1[nH]nc(-c2ccn[nH]2)n1-c1ccccc1Cl,2.8%,4.0%,-36.7%,-0.3
CC1CN(C)C(C)(C)CC1(O)c1ccccc1 (stereo not drawn),7.3%,-5.0%,-4.1%,5.6
CN1CCN(Cc2nnc3n2-c2ccc(Cl)cc2C(c2ccccc2)=NC3)CC1,-7.8%,0.1%,-1.2%,1.9
Cc1cc(=O)oc2cc(OCC(=O)N3CCN(Cc4ccccc4)CC3)ccc12,-1.5%,3.8%,·,·
CCC(C)n1c(O)c(/C=N/NC(=O)c2ccncc2)c(=O)[nH]c1=S (stereo not drawn),?,?,0.4%,-13.4
COC(=O)C1=C(c2ccc(S(C)(=O)=O)cc2)C[C@@H]2CC[C@H]1N2C(=O)N1CCOCC1,2.1%,-1.4%,·,·
N#Cc1cc2c(nc1SCC(=O)Nc1cc(Cl)ccc1Cl)C1CCN2CC1,-9.7%,?,-35.7%,2.8
C[C@]12CC[C@H](O)CC1=CCC1C2CC[C@@]2(C)C1CC[C@@H]2OCc1ccccc1 (stereo partly drawn),14.7%,0.9%,·,·
CN(C)C(=O)O/N=C(\N)COc1ccc(C(C)(C)C)cc1,-0.1%,3.5%,?,-17.0
CN1C2c3ccccc3C3C4c5ccccc5C(C31)C(C2[N+](=O)[O-])N4C (stereo not drawn),11.0%,0.8%,3.7%,-3.3
COC(=O)C1=C(c2ccc(F)cc2OCc2ccccc2)C[C@@H]2CC[C@H]1N2C(=O)NCc1ccc(N(C)C)cc1,-3.5%,5.0%,·,·
CN(C)CC1CCCCC1OC(=O)Cc1ccc(Cl)c([N+](=O)[O-])c1 (stereo not drawn),1.3%,-0.1%,0.8%,·
O=S(=O)(NC1CCCC1)OCC(Cl)(Cl)Cl,32.4%,0.0%,-1.6%,·
COc1ccc2c(C)c(CCC(=O)N3C[C@H]4C[C@@H](C3)c3cccc(=O)n3C4)c(=O)oc2c1,6.2%,0.6%,-7.0%,·
Cc1ccc(N=Cc2c(O)n(C)c(=O)n(C)c2=O)cc1,-16.5%,-2.6%,-3.5%,·
Nc1nnc(P(c2ccccc2)c2ccccc2)s1,2.2%,0.6%,5.4%,-5.4
C=CCN1CCC2(C)c3cc(O)ccc3CC1C2C (stereo not drawn),?,?,·,-4.0
CC(=O)N1N=C2C3CCN(CC3)C2C1c1ccc(Br)cc1 (stereo not drawn),13.7%,1.1%,0.1%,0.4
COC(=O)C(O)(c1ccc(NC(=O)c2cccs2)cc1)C(F)(F)F (stereo not drawn),-11.6%,-0.1%,-20.5%,-4.7
COC(=O)c1[nH]c2ccc(C)cc2c1NC(=O)Oc1ccccc1,14.5%,0.6%,-27.4%,-2.9
CNc1ccc2oc(C[C@H]3O[C@@]4(CC[C@H]3C)O[C@H]([C@H](C)C(=O)c3ccc[nH]3)[C@H](C)C[C@H]4C)nc2c1C(=O)O,-9.2%,0.6%,?,0.6&3.4
Cc1nnc2ccc(-c3cccc(C(F)(F)F)c3)nn12,1.7%,-3.0%,·,3.3
CN(C)CCN(CC1CCCN(Cc2ccccc2F)C1)C(=O)Cc1ccccc1F (stereo not drawn),4.8%,-1.4%,1.4%,·
C/C=C(\C)C(=O)OC1C(C)=C2C(C1OC(=O)CCCCC)C(C)(OC(C)=O)CC(OC(=O)CCC)C1(O)C2OC(=O)C1(C)O (stereo not drawn),·,·,?,?
CNC(=O)COC(=O)c1ccc(-c2nc3ccccc3s2)s1,-6.3%,1.4%,-38.7%,-10.4
CC(=O)OC1CCC2(C)C(CC(=O)C3C2CCC2(C)C(OC(C)=O)CCC32)C1 (stereo not drawn),0.9%,0.5%,·,·
O=Cc1c(C(=O)O)n(Cc2ccccc2F)c2ccccc12,?,-0.6%,1.4%,·
O=c1nc(/C=C/c2ccc(Cl)cc2Cl)cc(C(F)(F)F)[nH]1,?,-4.0%,0.1%,·
CNC(=S)N1CC2CC(C1)c1cccc(=O)n1C2 (stereo not drawn),-10.3%,-0.3%,1.0%,12.4
O=C(O)CCCc1ccc(N(CCCl)CCCl)cc1,0.3%,0.3%,-3.7%,5.5&-4.6&7.5&-4.1
CCN1CCN(c2ccc(NC(=O)C(C)C)cc2Cl)CC1,12.2%,6.3%,-11.1%,-16.2
Cc1ccsc1C(=O)C1CCCN(Cc2cc3ccccc3o2)C1 (stereo not drawn),0.6%,-0.2%,1.3%,5.9
Cc1oc2ccc(OC(=O)N(C)C)cc2c1C(=O)OC(C)C,-4.3%,0.5%,-1.2%,-8.0
CCOP(=S)(OCC)c1ccc(N(C)C)cc1,18.2%,-2.7%,-9.0%,-2.6
CCC(C)/C=C(C)/C=C/C1=CC2=C(Cl)C(=O)C(C)(OC(C)=O)C(=O)C2=CO1 (stereo not drawn),?,?,-26.8%,?
Cc1ccc(/C=C2/C(=O)NC(=O)N(CCc3ccc(F)cc3)C2=O)s1,-13.5%,0.2%,-12.0%,-1.8
C[C@]12CCC3C(C(=O)C[C@H]4C[C@@H](O)CC[C@]34C)C1CCC2=O (stereo partly drawn),0.9%,1.7%,·,·
CN1C2CCC1CC(OC(=O)c1cc(Cl)cc(Cl)c1)C2 (stereo not drawn),3.8%,0.7%,-14.2%,-4.3&-4.5
O=c1[nH]c(=S)n(C2CC2)c(O)c1/C=N/Nc1ccccc1,-21.7%,?,-37.0%,-8.7
CC12Cc3cnoc3C=C1CCC1C2CCC2(C)C1CCC2(C)O (stereo not drawn),-2.1%,1.5%,·,·
CCCCCCn1c(=O)c(C(=O)Nc2nnc(C)s2)c(O)c2ccccc21,·,·,-1.9%,3.7
C[C@H]1CCC/C=C/C2C[C@H](O)CC2[C@H](O)/C=C/C(=O)O1 (stereo partly drawn),-5.5%,0.2%,?,7.0
CCOC(=O)C1CCN(Cc2ccc(Cl)nc2)CC1,5.5%,0.2%,-0.5%,·

# (cont.)
SMILES,Rango release inh,Rango complex inh,miR-21 reporter,GLA inh pH 4.5
CCCCn1c(O)c(/C=C2\C=Nc3ccccc32)c(=O)[nH]c1=O,38.6%,8.1%,2.6%,·
CNCC(O)c1cccc(OC(=O)c2ccccc2C)c1 (stereo not drawn),9.8%,-4.1%,-8.7%,12.1
COc1ccccc1C(=O)C1CCCN(Cc2cnc(C)s2)C1 (stereo not drawn),4.9%,0.9%,3.9%,5.7
CCN(CC)C(=O)Cn1cc(/C=C2\C(=O)NC(=O)N(c3ccccc3F)C2=O)c2ccccc21,9.3%,-0.7%,15.8%,·
O=c1cc(C2CCNCC2)[nH][nH]1,-4.8%,2.4%,1.3%,0.8
CCC12CN3CCN(CC(C3)/C1=N/NC(N)=O)C2,0.3%,-0.3%,-1.2%,1.8
CN1CC(C(=O)c2cccs2)C(c2ccc(Cl)cc2)C1 (stereo not drawn),9.2%,3.0%,-5.3%,·
CC(CCN1CC1)=NNC(=O)Nc1cccc2ccccc12,30.8%,-1.7%,·,·
CCCCc1nc2ccccc2c(=O)n1-c1ccc(Cl)cc1[N+](=O)[O-],-0.9%,-1.7%,-2.0%,-4.1
CC(=O)O[C@@]12CO[C@@H]1C[C@H](O)[C@@]1(C)C(=O)[C@H](O)C3=C(C)[C@@H](OC(=O)[C@H](O)[C@@H](NC(=O)c4ccccc4)c4ccccc4)C[C@@](O)([C@@H](OC(=O)c4ccccc4)C12)C3(C)C (stereo partly drawn),12.8%,0.4%,10.3%,·
